# From PubChem
# CtBP-E1A inh: blocks the CtBP interaction with E1A. AlphaScreen GST-E1A/His-CtBP binding, 1536-well; stronger effect = lower value; control for the full effect not named in the record. activity change, % (no concentration beside the values). 0.49% of 340,000 active. AID 651724; in the data active means activity change below about -65%; inconclusive means about -30% to -65%; inactive means above about -30%; further: on the % scale 0 is the no-effect control and ±100 the full control effect; compound concentration not given in the record
#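 AlphaScreen with 125 nM GST-E1A and 125 nM His-CtBP (5X stocks) in Tris pH 8.0, 300 mM NaCl, BSA, Tween 20, TCEP. Compounds preincubated 2 h at 37 deg C, then glutathione donor/nickel acceptor beads added for 1 h at 37 deg C in dark.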
# TRPML1 ag: activates the human TRPML1 channel; activation, % (no concentration beside the values); TRPML1-expressing cells, Ca2+ dye fluorescence, FDSS; host cell line not named in the record; reference of the full effect not given here; 0.12% of 410,000 active; AID 624414; Q9GZU1; in the data active = activation above about 50%; inconclusive = about 30% to 50%; inactive = below about 30%; further: 0% is about no effect; the text of the record puts the active cut at 80%
# Target sequence (Q9GZU1 whole entry, looked up): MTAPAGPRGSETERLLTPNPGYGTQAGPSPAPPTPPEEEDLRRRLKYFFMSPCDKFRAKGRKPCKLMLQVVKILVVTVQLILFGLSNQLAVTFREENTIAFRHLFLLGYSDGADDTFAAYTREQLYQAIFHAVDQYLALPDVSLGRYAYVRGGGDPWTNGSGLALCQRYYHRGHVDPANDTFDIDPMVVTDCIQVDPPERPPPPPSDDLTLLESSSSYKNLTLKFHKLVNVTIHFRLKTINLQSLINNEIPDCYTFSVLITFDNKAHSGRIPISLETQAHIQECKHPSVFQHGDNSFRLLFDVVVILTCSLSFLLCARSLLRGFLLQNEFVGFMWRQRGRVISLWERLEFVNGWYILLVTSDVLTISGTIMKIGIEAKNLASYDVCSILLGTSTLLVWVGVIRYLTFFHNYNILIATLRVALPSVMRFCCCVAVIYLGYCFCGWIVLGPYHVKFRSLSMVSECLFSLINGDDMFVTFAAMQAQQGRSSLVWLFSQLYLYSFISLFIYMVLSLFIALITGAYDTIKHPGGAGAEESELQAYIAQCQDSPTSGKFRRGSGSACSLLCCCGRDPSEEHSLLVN
#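 TRPML1-DL cells, Tet-induced overnight (~16 h, 37 degrees C), loaded 45-90 min at room temperature with Ca8 no-wash calcium dye plus quencher. FDSS fluorescence: 10 s baseline, compound pin-transfer, 110 s agonist read, then EC80 54-4 (4uM final) and 110 s antagonist read.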
# D2 PAM: human D2 receptor positive allosteric modulation; DiscoveRx D2 beta-arrestin cells, luminescence, 90 min; 100% = 57 uM dopamine signal; potentiation, % (concentration not given with the values); 0.23% of 360,000 active; active = potentiation of 50% or more; inconclusive = 30% to 50%; inactive = 30% or less;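 further: compound concentration not given in the record; tested on top of an EC20 dose of dopamine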
# Target sequence (P14416 whole entry, looked up): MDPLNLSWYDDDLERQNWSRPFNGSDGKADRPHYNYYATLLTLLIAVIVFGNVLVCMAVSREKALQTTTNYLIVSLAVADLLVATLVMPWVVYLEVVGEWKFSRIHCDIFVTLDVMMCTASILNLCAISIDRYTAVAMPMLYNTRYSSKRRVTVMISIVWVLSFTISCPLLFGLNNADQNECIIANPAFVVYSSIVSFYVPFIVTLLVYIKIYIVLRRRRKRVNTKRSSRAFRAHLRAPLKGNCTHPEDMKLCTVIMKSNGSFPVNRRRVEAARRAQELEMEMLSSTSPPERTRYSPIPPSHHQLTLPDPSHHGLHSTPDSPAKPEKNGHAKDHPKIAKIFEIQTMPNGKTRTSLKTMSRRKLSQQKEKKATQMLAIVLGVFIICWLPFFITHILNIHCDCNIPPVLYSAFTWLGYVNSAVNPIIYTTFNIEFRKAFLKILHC
#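 PathHunter D2 cells, attached overnight at 37 deg C, received compound in DMSO plus dopamine at EC20 (50 nM final) for 90 min at 37 deg C. Beta-arrestin recruitment was read as luminescence after 1 h with detection reagent at ambient temperature.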
# Six1-Eya2 inh: inhibitors of human Six1/Eya2 interaction. Q15475+O00167. AlphaScreen GST-Six1/His-Eya2 binding, biochemical; stronger effect = lower value; control for the full effect not named in the record. activity change, % (no concentration beside the values). 0.56% of 360,000 active; in the data active = activity change below about -65%; inconclusive = about -30% to -65%; inactive = above about -30%; further: on the % scale 0 is the no-effect control and ±100 the full control effect; compound concentration not given in the record
#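 AlphaScreen with GST-Six1 and His-Eya2 (5X mix: 250 nM and 500 nM), glutathione donor and nickel acceptor beads; buffer 50 mM Tris pH 8.0, 300 mM NaCl, 1 mM TCEP; 1 h at 37 C in the dark.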
# TRPV1 PAM: human TRPV1 potentiation | Q8NER1 | TRPV1-expressing cells, Fluo-8 calcium influx, capsaicin EC20 potentiation; host cell line not named in the record; control for the full effect not named in the record | potentiation, % at 8.33 µM | 0.02% of 320,000 active | AID 540277; active means potentiation above 80%; inconclusive means 30% to 80%; inactive means below 30%; further: 0% is about no effect
#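 Fluo-8 calcium influx in TRPV1-expressing cells, kinetic read (ex 480/em 520 nm). Compound added and read 3 min for agonist activity, followed by capsaicin at EC20 final and 2 min further read for enhancement.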
# TRPML1 blocker: human mucolipin-1 channel inhibition | Q9GZU1 | TRPML1-inducible cells, Ca2+ dye fluorescence, FDSS; stronger effect = lower value; inhibition of EC80 agonist-evoked calcium signal | activity change, negative = inhibition, % (no concentration beside the values) | 0.02% of 390,000 active | AID 624415; in the data active means activity change below about -50%; inconclusive means about -30% to -50%; inactive means above about -30%;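 further: stimulus is agonist 54-4 at its EC80 concentration; on the % scale 0 is the no-effect control and ±100 the full control effect; compound concentration not given in the record; the text of the record puts the active cut at -80%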
#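 Tet-induced TRPML1-DL cells loaded with Ca8 no-wash calcium dye were read kinetically on FDSS. Compound addition was followed by EC80 agonist 54-4 (4 uM final); inhibition was read over 110 s.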
# Numbers without * were called inactive; ? = inconclusive; nt = not tested or not shown.
SMILES,CtBP-E1A inh,TRPML1 ag,D2 PAM,Six1-Eya2 inh,TRPV1 PAM,TRPML1 blocker
CCCCOC(=O)c1[nH]c2c(c1C)C(=O)CC(c1cc(OC)c(OC)c(OC)c1)C2 (stereo unspecified),-10,2.6,4,-15,-3,17
N#CC1(Nc2cccc(Br)c2)C(=O)Nc2ccccc21 (stereo unspecified),0,3.1,-42,-5,?,4
C[C@@H]1CN([C@@H](C)CO)C(=O)CCCn2nncc2CO[C@@H]1CN(C)C(=O)Nc1ccc(N2CCN(C)CC2)cc1,7,2.2,6,3,nt,17
CSc1nsc(SCC(=O)NC2CCCCC2)n1,4,-0.8,12,12,-6,6
CCOc1ccc(CN2CCNC(=O)C2CC(=O)NC2CCOCC2)cc1 (stereo unspecified),13,-0.3,?,2,-3,5
Cc1ccc(SCC(=O)Nc2ccc(N3CCN(c4ccccc4)CC3)c(F)c2)cc1,2,0.2,9,0,0,-2
COc1ccccc1CNC(=O)COC(=O)CCC(=O)c1cccs1,3,0.7,-1,-1,-17,9
CCOC(=O)c1sc(=S)n(C)c1NC(=O)c1cccc(Br)c1,-1,-0.8,-6,-12,1,-4
COc1ccccc1NS(=O)(=O)c1ccc2oc(N)nc2c1,6,-0.5,-3,-1,-8,20
O=C(NC1CCCCC1)C(c1cccs1)N(C(=O)Cc1c[nH]c2ccccc12)c1ccc(F)cc1 (stereo unspecified),-8,0.1,-14,-3,-10,-18
O=C(NNS(=O)(=O)c1ccc(F)cc1)c1ccccc1F,4,-0.1,-1,6,5,-9
COc1cc(S(=O)(=O)Nc2ccc(C)cc2)ccc1N=Cc1c(C)[nH]n(-c2ccc(C)cc2)c1=O,-8,-0.6,-6,?,-1,8
CCN1CCN(c2ccc(S(=O)(=O)N3CCCCC3)cc2NC(=O)c2cccc(Cl)c2)CC1,-10,-0.2,-1,-2,22,-22
O=C(O)c1ccc(Oc2ccccc2)o1,0,4.2,-1,3,6,20
CC1CN(C(=O)CNC(=O)COc2ccccc2)CC(C)O1 (stereo unspecified),-19,0.1,1,-16,nt,-4
COc1ccccc1/C=C/CN1CCNC(=O)C1CC(=O)NCCc1cnccn1 (stereo unspecified),-5,0.3,-8,2,18,-6
O=S(=O)(Nc1nccs1)c1ccc(NCc2cc(Br)cc(Br)c2O)cc1,nt,-0.6,-18,-90*,nt,1
O=C(c1ccc(CNS(=O)(=O)c2cccc(C(F)(F)F)c2)cc1)N1CCOCC1,1,2.2,-2,-8,-1,-20
CC(NC(c1ccccc1)c1ccccc1)C(=O)N1CCCc2ccccc21 (stereo unspecified),1,3.2,-18,10,-5,53
CC(C)(C)[C@H]1COC(=O)[C@H](NC(=O)OCC2c3ccccc3-c3ccccc32)C/C=C\C[C@@H](CC(=O)N(CCO)Cc2ccccc2)C(=O)N1,-14,-0.2,-1,3,nt,-3
CCn1c(SCC(=O)n2c(C)c(C)c3ccccc32)nnc1-c1ccco1,-3,6.4,-8,-3,13,27
CS(=O)(=O)c1ccc2nc(NC(=O)c3ccc(S(=O)(=O)NCC4CCCO4)cc3)sc2c1 (stereo unspecified),2,1.3,11,2,-11,23
N#CCC(CNc1ncc(C(F)(F)F)cc1Cl)OC(=O)c1cccc(C(F)(F)F)c1 (stereo unspecified),20,-0.2,-16,8,-16,9
CNCC(=O)Nc1ccc(OC(F)(F)F)cc1,-11,-1.1,-2,9,3,2
Cc1nn(CC(=O)N2CCC(C(N)=O)CC2)c(=O)c2nn(-c3ccccc3)c(C)c12,-5,0.3,-3,-2,4,-13

# Remaining list, next part:
SMILES,CtBP-E1A inh,TRPML1 ag,D2 PAM,Six1-Eya2 inh,TRPV1 PAM,TRPML1 blocker
CCS(=O)(=O)Nc1cccc(C2=NN(S(=O)(=O)c3ccc(C)cc3)C(c3cccs3)C2)c1 (stereo unspecified),0,0.8,-1,4,-7,8
CC(C)c1nnc(NC(=O)c2cc3cc(Br)ccc3oc2=O)s1,-30,1.8,-4,?,4,2
O=C(Nc1cccc(S(=O)(=O)N2CCCCC2)c1)c1ccccc1NS(=O)(=O)c1ccc(F)cc1,14,0.3,-7,5,25,?
COc1cccc(OC)c1NC(=O)C1CCCN1C(=O)Nc1cccc(Cl)c1 (stereo unspecified),-17,0.1,2,-15,-9,-8
COC(=O)c1ccc(NC(=O)CSc2nc(C)cc(=O)[nH]2)cc1,-1,-0.7,-15,-1,-25,-1
CC1CCN(C(=O)C2CCC(=O)N(Cc3ccc(Cl)cc3)C2)CC1 (stereo unspecified),15,0.5,0,2,-22,-3
Cc1ccc(S(=O)(=O)Nc2cccc(-n3cnnn3)c2)cc1C(=O)O,nt,0.3,-7,3,-7,3
COc1ccccc1C(=O)OCC(=O)c1ccc(CNC(C)=O)s1,nt,-0.1,-2,5,nt,-8
COCCNC(=O)CSc1nc2scc(-c3ccccc3)c2c(=O)[nH]1,-18,-0.4,-7,-14,?,3
COC(=O)c1ccc(CNC(=O)CN2C(=O)NC(Cc3ccccc3)(c3ccccc3)C2=O)cc1 (stereo unspecified),2,0.4,-3,-3,nt,-3
CCCc1c(C(=O)N/N=C/c2ccc(-c3ccccc3)cc2)nnn1-c1nonc1N,-28,-0.2,-11,2,nt,-16
O=C(COC(=O)Cc1ccc(Br)cc1)NCc1cccs1,6,1.3,-8,-5,nt,-1
COC(=O)c1sc(NC(=O)COc2cccc3ccccc23)nc1C,5,4.1,-5,4,18,-3
Cc1ccc(S(=O)(=O)C2(C(=O)N3CCN(C4CCCCC4)CC3)CC2)cc1,43,-0.5,-16,29,-9,15
O=C(OCC(=O)N1N=C(c2ccc(Cl)cc2)CC1c1ccco1)c1cncc(Br)c1 (stereo unspecified),-3,0.8,-11,-15,nt,15
C=C(C)[C@H]1CC=C(C)/C(=N/NC(=O)CNc2ccccc2OC)C1,-7,-0.3,-16,-8,nt,0
CC(=O)Nc1ccc(S(=O)(=O)N2CN(c3ccc(C)cc3)c3nc4ccccc4nc32)cc1,9,0.0,-5,2,nt,-12
COc1ccc(-n2cc(CNCCc3cscn3)c(-c3ccccc3Cl)n2)cc1,-2,0.1,-22,-11,5,7
O=C(/C=C/Nc1ccc(Nc2ccccc2)cc1)c1cccs1,-4,2.1,4,?,14,-3
COc1ccc(C)cc1NC(=O)C(NC(=O)c1cc(OC)c(OC)c(OC)c1)C(C)C (stereo unspecified),-15,0.1,-6,10,6,-3
Cc1csc(=O)n1CCC(=O)OCC(=O)Nc1ncc(Cl)cc1Cl,1,-0.7,0,-8,7,1
O=C(COc1ccc(Br)cc1CO)Nc1ccc(S(=O)(=O)N2CCCC2)cc1,-4,2.2,-20,-6,-21,17
COc1ccc(OCCC(=O)NC2=NCCS2)cc1,2,-0.5,1,-3,-6,-12
Cc1ccc(S(=O)(=O)N2CCSC2C(=O)O)cc1 (stereo unspecified),4,-0.7,-4,3,-1,9
COc1cc(NC(=S)NC(=O)c2cc(C)cc(C)c2)ccc1NC(=O)c1cccs1,-9,0.2,-13,-16,29,-6

# One compound at a time, from the list above. Order of values: CtBP-E1A inh | TRPML1 ag | D2 PAM | Six1-Eya2 inh | TRPV1 PAM | TRPML1 blocker
# Profile of COc1ccccc1NS(=O)(=O)c1ccc2oc(N)nc2c1 : 6 | -0.5 | -3 | -1 | -8 | 20
# Profile of O=C(O)c1ccc(Oc2ccccc2)o1 : 0 | 4.2 | -1 | 3 | 6 | 20
# Profile of COC(=O)c1ccc(NC(=O)CSc2nc(C)cc(=O)[nH]2)cc1 : -1 | -0.7 | -15 | -1 | -25 | -1
# Profile of Cc1ccc(S(=O)(=O)N2CCSC2C(=O)O)cc1 (stereo unspecified) : 4 | -0.7 | -4 | 3 | -1 | 9
# Profile of CCN1CCN(c2ccc(S(=O)(=O)N3CCCCC3)cc2NC(=O)c2cccc(Cl)c2)CC1 : -10 | -0.2 | -1 | -2 | 22 | -22

# (continued)
SMILES,CtBP-E1A inh,TRPML1 ag,D2 PAM,Six1-Eya2 inh,TRPV1 PAM,TRPML1 blocker
Cc1cccc(Nc2nnc(SCC(=O)N(C)C3CCS(=O)(=O)C3)s2)c1C (stereo unspecified),-16,-0.9,-12,-2,2,-1
Cc1ccc(C(=O)NCc2ccc3c(c2)OCO3)cc1Cl,6,0.8,-6,2,-17,21
C[C@H](CO)N1C[C@H](C)[C@@H](CN(C)Cc2ccc3c(c2)OCO3)Oc2cc(Br)ccc2S1(=O)=O,-23,3.3,-11,7,nt,-9
O=C(c1cnn(-c2ccccc2)c1)c1ccccc1O,-9,3.5,-5,11,-11,11
O=C(Nc1ccc(N2C(=O)C3C4C=CC(C4)C3C2=O)cc1)Nc1nnc(C(F)(F)F)s1 (stereo unspecified),3,-1.2,-1,-1,11,-13
CN(C(=O)COC(=O)c1cc2c(s1)CCCCC2)c1ccccc1,-9,4.9,-5,1,-12,58
O=C(O)CCSc1nnc(-c2cccnc2)n1-c1ccccc1,3,1.4,-5,-1,?,3
COc1ccc(/C=N/Nc2nc3ccccc3o2)cc1O,-11,2.3,15,-4,18,5
CN(C)S(=O)(=O)c1cccc(CSc2cccc[n+]2[O-])c1,-3,-0.8,2,10,-8,3
NS(=O)(=O)c1cccc(NC(=O)c2cccc(Oc3ccccc3)c2)c1,13,3.9,-3,-6,-16,58
O=C(CCc1ccc(O)c(O)c1)NNC(=S)Nc1ccc(Br)cc1Cl,-8,0.0,0,105,-10,-16
COc1ccc(OC)c(C(O)c2nc3ccccc3n2C(C)C)c1 (stereo unspecified),-6,-0.7,-2,6,25,25
COc1ccc(C(=O)OCC(=O)Nc2cc(S(=O)(=O)N3CCOCC3)ccc2N2CCCC2)cc1,0,0.3,-30,0,6,4
O=C(O)c1ccc(CNC(=O)c2ccc(C(F)(F)F)cc2)cc1,nt,-0.5,-5,12,13,3
FC(F)(F)c1ccc(N2CCOCC2)c(Nc2nc3ccccc3n3cnnc23)c1,39,0.0,7,24,4,40
Cc1noc(C)c1C(c1ccccc1)S(=O)(=O)c1ccccc1 (stereo unspecified),-9,2.2,12,5,0,8
COc1ccc(C(C)NC(=S)NCc2ccc(F)cc2)cc1 (stereo unspecified),-5,1.2,-23,-7,-13,-11
O=C(CSc1nnc(COc2ccc(Cl)cc2)o1)N(c1ccccc1)C1CCS(=O)(=O)C1 (stereo unspecified),-3,0.5,-14,-3,nt,20
CCOc1ccc(C(=O)c2cnc3ccccc3c2N2CCN(CC)CC2)cc1,-3,0.8,-3,4,-11,5
COc1cccc(-c2ccc3nnc(SCC(=O)N4CCCC4)n3n2)c1,0,-1.0,1,0,2,26
COc1ccc(OCc2cc(=O)c3ccc4c(c3o2)C=CC(C)(C)O4)cc1OC,0,0.1,23,-21,nt,-2
CN(N=Nc1nc[nH]c1C(=O)NN)C1CCCCC1,9,3.3,-6,-28,nt,18
CCOC(=O)C1=C(CC)Nc2ccccc2N=C1NC(=O)c1ccc(S(=O)(=O)N(C)C)cc1,-2,0.8,3,5,10,-1
Cc1cc(C(=O)Nc2nnc(C3CC3)s2)c(C)s1,8,-0.1,-4,-2,9,5
O=C(Nc1cccc(C(=O)O)c1)/C(=C/c1ccccc1)NC(=O)c1cccc(Br)c1,nt,2.2,0,3,nt,2
COc1ccc(N2CCN(C(=O)COC(=O)c3ccc(C)o3)CC2)cc1,2,0.1,5,-10,-1,3
